From PubChem
RE007 growth inh: less growth of the S. pombe RE007 Vpr strain. S. pombe RE007 Vpr strain, BacTiter-Glo ATP luminescence, 24 h; control for the full effect not named in the record. Potency, µM (top dose mostly 92.2 µM), for inactives: at the top dose activity change, negative = less growth. 0.21% of 360,000 active. AID 651644; active = well fitted falling curve with a large enough effect; inconclusive = small, poorly fitted or top-dose-only effect; inactive = no such curve, though single readings can be large or run the other way;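 further: on the % scale 0 is the no-effect control and ±100 the full control effect; nearly all actives have a fitted effect of over 50% in size; the assay follows cell death caused by Vpr and the record does not say whether a fall means rescue or toxicity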
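Fission yeast strain RE007, carrying one chromosomally integrated HIV-1 vpr copy, was seeded at OD 0.01 in PMG+AL medium with 23 nL pinned compound. After 24 h at 30 °C and 99% humidity, viability was read by BacTiter-Glo luminescence.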
SARS PLP yeast: inhibitors of SARS-CoV papain-like protease in yeast. S. cerevisiae expressing SARS-CoV PLpro, growth rescue; control for the full effect not named in the record. Potency, µM (doses to about 32.9 µM), without a hit: top-dose activity, positive = growth rescue. 0.19% of 330,000 active. AID 485353; further: 0% is about no effect; nearly all actives have a fitted effect of over 55% in size; growth read by luminescence after 48 h
LASV entry inh: blocks Lassa virus binding to or entry into cells. Potency, µM (series often up to 37.9 µM), for inactives: at the highest dose activity change, negative = inhibition, actives largely listed as inhibitors. AID 540256. 1.2% of 300,000 active. Lassa virus pseudotype entry inhibition, cell reporter; control for the full effect not named in the record; active means well fitted inhibition curve with a large enough effect; inconclusive means small, poorly fitted or top-dose-only effect, or effect the other way; inactive means flat fitted curve, though single readings scatter; tested in HEK293 cells; further: on the % scale 0 is the no-effect control and ±100 the full control effect; nearly all actives have a fitted effect of over 50% in size; luciferase read-out
StopGo reporter: lowers the luciferase signal of an FMDV 2A StopGo reporter; human cells with a luciferase reporter of 2A StopGo recoding; control for the full effect not named in the record; Potency, µM (highest dose often 57.9 µM), inactives show at the top dose signal change, negative = less light; 1.2% of 410,000 active; AID 1159524; active = well fitted falling curve with a large enough effect; inconclusive = small, poorly fitted or top-dose-only effect; inactive = no such curve, though single readings can be large or run the other way; tested in HEK293T cells; further: on the % scale 0 is the no-effect control and ±100 the full control effect; nearly all actives have a fitted effect of over 45% in size; luciferase light after 4 h
Cruzain inh Det: cruzain (T. cruzi) inhibition with detergent; P25779; purified cruzain, Z-FR-AMC fluorescence, 0.01% Triton; Potency, µM, without a hit: max response, negative = inhibition, most hits filed as inhibitors; 0.43% of 200,000 active; AID 1478; active means well fitted curve in the direction sought with a large enough effect; inconclusive means small, poorly fitted or top-dose-only effect, or another doubt; inactive means no such curve, though single readings can be large; an effect the other way counts as inactive or inconclusive;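 further: plate controls were neutral wells for no effect and buffer without enzyme for full effect; nearly all actives have a fitted effect of over 40% in size; top concentration of the series not given in the record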
Target sequence (P25779 123-467 limits assumed): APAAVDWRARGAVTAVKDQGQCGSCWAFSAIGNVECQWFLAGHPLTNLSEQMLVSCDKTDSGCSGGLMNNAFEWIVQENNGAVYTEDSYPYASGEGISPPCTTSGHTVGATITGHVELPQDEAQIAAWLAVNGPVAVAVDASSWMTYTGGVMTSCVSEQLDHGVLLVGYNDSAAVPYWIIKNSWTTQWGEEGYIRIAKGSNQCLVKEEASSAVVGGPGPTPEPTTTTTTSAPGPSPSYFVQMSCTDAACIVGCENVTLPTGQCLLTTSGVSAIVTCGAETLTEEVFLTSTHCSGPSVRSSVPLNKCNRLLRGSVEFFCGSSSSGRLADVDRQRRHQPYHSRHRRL
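Sodium acetate buffer (100 mM, pH 5.5) containing 5 mM DTT and 0.01% Triton X-100 hosted 1.5 nM cruzain and test compound for 15 min at room temperature. Cleavage of 2 uM Z-FR-AMC was then tracked by fluorescence.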
Cruzain noTriton: cruzain (T. cruzi) inhibition without detergent | 2.3% of 200,000 active | Potency, µM, for inactives: max response, negative = inhibition, actives largely listed as inhibitors | P25779 | purified cruzain, Z-FR-AMC fluorescence, no detergent; active means well fitted curve in the direction sought with a large enough effect; inconclusive means small, poorly fitted or top-dose-only effect, or another doubt; inactive means no such curve, though single readings can be large; an effect the other way counts as inactive or inconclusive;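 further: plate controls were enzyme without inhibitor for no effect and buffer without enzyme for full effect; nearly all actives have a fitted effect of over 40% in size; top concentration of the series not given in the record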
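Detergent-free condition (0.00005% Triton X-100) in acetate buffer pH 5.5 with DTT. 1.5 nM enzyme and compound were pre-mixed 15 min, then 2 uM Z-FR-AMC substrate added; reaction progress from fluorescence change between first and third reads (60 s).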
MARV entry inh: Marburg virus entry inhibition | Marburg virus pseudotyped entry inhibition, cell reporter; control for the full effect not named in the record; about a third of the inactives were read at about 46 µM | Potency, µM (highest dose often 37.8 µM), inactives show top-dose activity change, negative = inhibition, actives largely listed as inhibitors | 1.8% of 300,000 active | AID 540276; active = well fitted inhibition curve with a large enough effect; inconclusive = small, poorly fitted or top-dose-only effect, or effect the other way; inactive = flat fitted curve, though single readings scatter; tested in HEK293 cells; about a fifth of its hits are not listed in these tables; further: on the % scale 0 is the no-effect control and ±100 the full control effect; luciferase read-out
NS1 inh: influenza NS1 inhibition; AID 2326; Potency, µM (titrated, usually from 46.1 µM), inactives show top-dose activity, positive = more growth; 0.4% of 270,000 active; S. cerevisiae slowed by influenza A NS1, growth recovery by OD600; further: actives are rising curves; nearly all actives have a fitted effect of over 50% in size
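Recovery from NS1-induced slow growth read by OD600 in budding yeast switched to galactose assay medium (pH 6.0, -URA) at 1:100 dilution. Compound 23 nl per well; the matching strain lacking NS1 serves as control.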
Starred values were filed as active, the others as inactive; ? = inconclusive; . = no result given; & = joins results of further samples; [ ] = another dose, or the depositor's remark. Unless noted, the call rests on the fitted dose curve; in most records, active means well fitted rising curve with a large enough effect; inconclusive means small, poorly fitted or top-dose-only effect; inactive means no such curve, though single readings can be large or run the other way. Potency means the concentration at half of the fitted maximal effect. This is a random part of the collection (roughly 4.7% active in at least one column).

SMILES	RE007 growth inh	SARS PLP yeast	LASV entry inh	StopGo reporter	Cruzain inh Det	Cruzain noTriton	MARV entry inh	NS1 inh
CCCc1nnc(NC(=O)CCC(=O)NCCc2ccc(Cl)cc2)s1	6.0%	1.2%	-4.7%[46.1 µM]	-10.6%	.	.	6.2%[46.1 µM]	-5.0%
CCCCNC(=S)NC(=O)c1ccc([N+](=O)[O-])cc1	?	11.0%	-9.8%	31.0%[activator]	-5.4%	-6.5%	?	-6.8%
COc1ccc(NC(=O)c2cccc(N3C(=O)c4ccc(C(=O)Nc5ccc(OC)c(O)c5)cc4C3=O)c2)cc1O	-1.5%	-0.4%	?	-28.4%	.	.	?	-7.9%
CCC(c1nnnn1Cc1cccs1)N1CCN(C2CCCC2)CC1 (stereo not given)	-12.2%	3.1%	14.0%	-16.1%	0.9%	-6.5%	8.0%	3.0%
Cc1sc(NC(=O)c2ccc(=O)n(C)n2)nc1-c1ccccc1	2.4%	-1.3%	?	31.0%[activator]	.	.	15.4%[46.1 µM]	.
COc1ccc(CN2C(=O)CCC2(C)C(=O)NC2CCCCCC2)cc1 (stereo not given)	-2.9%	5.0%	14.5%	-2.7%	8.3%	-1.6%	1.1%	-2.1%
COc1cccc(-c2c(-c3cc(OC)cc(OC)c3)n(C)c3ccc(-c4cccc5[nH]ccc45)cc23)c1	-1.3%	7.5%	.	-6.1%	.	.	-1.8%	.
COc1ccc(NC(=O)c2cc(S(=O)(=O)N3CCCCC3)ccc2N2CCCCC2)cn1	17.4%	-0.2%	-12.2%	-14.7%	-5.0%	-2.3%	-9.6%	0.0%
Cc1ccc2cccc(NC(=O)c3ccc(-c4ccc(Br)cc4)o3)c2n1	.	.	-3.1%[46.1 µM]	-17.5%	1.0%	-12.4%	-21.1%[46.1 µM]	.
Cc1[nH]c2ccccc2c1/C=N/O	14.7%	0.7%	-5.5%	5.9%	2.7%	-2.8%	?	9.4%
Cn1c(=O)c2c(ncn2CCC(=O)N/N=C/c2cccnc2)n(C)c1=O	4.2%	-1.4%	-4.3%	6.5%	.	.	9.6%	2.2%
COc1ccc(-c2noc(CSc3nnc(C)n3-c3ccc(OC)cc3)n2)cc1	.	.	?	?	-3.6%	-13.2%	-1.0%[46.1 µM]	.
S=C(NCCCN1CCOCC1)NCCCN1CCOCC1	14.5%	16.5%	-13.6%	-17.4%	0.1%	-2.9%	-14.6%	6.5%
CCOC(=O)C(/C=C(\C#N)C(=O)OCC)=C(/N)N1CCN(c2ccccc2)CC1	-20.7%	4.4%	3.2%	-17.9%	-7.7%	?	9.1%	4.5%
COc1ccc(-n2c(/C=C/c3ccc(O)cc3)nc3ccccc3c2=O)cc1	-4.2%	-1.9%	.	?	.	.	.	-8.6%
CCOC(=O)c1cc2c(ccn2C)n1CC(=O)N1C(C)CCCC1C (stereo not given)	-3.5%	-0.4%	.	-19.5%	.	.	.	5.9%
CCOc1ccc(NC(=O)Nc2ccc(Cc3ccncc3)cc2)cc1	-8.4%	-4.5%	-1.3%[46.1 µM]	-20.5%	.	.	?	-5.7%
Cc1cc2c(nn1)CCC/C2=N\O	-12.8%	?	-3.4%	-17.3%	-1.8%	12.4%	3.2%	2.6%
CN(CCCOc1ccccc1Br)Cc1ccccc1	-21.5%	-0.3%	-1.3%	-4.9%	.	.	?	-1.4%
COc1cccc(NC(=O)C(=O)NCC(c2cccnc2)N2CCN(c3ccccc3)CC2)c1 (stereo not given)	.	.	11.2µM*	-1.1%	2.5%	-15.2%	.	.
COc1ccccc1COCC(O)CNCC1(N2CCCCC2)CCCCC1 (stereo not given)	-1.1%	-3.1%	-19.4%	-12.6%	2.6%	2.0%	?	-1.0%
Cc1noc(C)c1C(=O)N1CCC2(CC1)OCCO2	11.2%	0.4%	43.8%[14.3 µM]	1.3%	-1.2%	4.9%	-0.1%	6.6%
Cc1ccccc1NC(=O)/C(=C\c1cccs1)NC(=O)c1ccco1	3.6%	?	-15.8%	13.8%	-2.9%	-11.1%	23.7%	-2.9%
CCCCC(=O)Nc1ccc2c(c1)C(=O)NC2=O	11.6%	-2.2%	.	-5.3%	-8.9%	10.6%	4.1%	0.7%
COc1ccc(C)cc1N(CC(=O)Nc1cccnc1)S(=O)(=O)c1ccccc1	5.0%	-1.4%	-14.4%	22.3%	.	.	-12.0%[46.1 µM]	-0.7%

Going on with the list.
SMILES	RE007 growth inh	SARS PLP yeast	LASV entry inh	StopGo reporter	Cruzain inh Det	Cruzain noTriton	MARV entry inh	NS1 inh
CCC1CCc2c(sc(NC(C)=O)c2C#N)C1 (stereo not given)	-15.8%	-7.9%	?	23.4%	-2.0%	3.3%	12.8%	-2.0%
O=[N+]([O-])c1ccc(OCCO)nc1	-6.3%	-1.1%	21.8%	9.2%	.	.	0.0%[14.2 µM]	-0.9%
COc1ccccc1S(=O)(=O)Cc1ccc(C(=O)NCc2ccc(C)cc2)o1	-9.1%	-4.4%	?	-5.5%	.	.	4.2%[46.1 µM]	3.1%
CCc1ccc(NC(=O)CN2CCN(C3CCCCC3)C(=O)C2=O)cc1	.	.	3.9%[46.1 µM]	-15.5%	0.9%	-4.4%	.	.
COc1ccc(C(=O)NCC(C)NC(=O)c2ccc(OC)c(Br)c2)cc1Br (stereo not given)	-2.7%	.	?	1.9%	.	.	0.2%[46.1 µM]	.
COc1ccccc1CNC(=S)Nc1cc(C)ccc1C	-3.6%	-1.1%	-15.1%[46.1 µM]	30.0%	.	.	5.4%[46.1 µM]	-38.5%
C=CCNC(=O)c1onc(CSc2ccncc2)c1C(=O)NCC=C	-10.2%	1.2%	.	-23.9%	.	.	.	0.9%
CN(C1CCS(=O)(=O)C1)S(=O)C12CC3CC(CC(C3)C1)C2 (stereo not given)	-0.1%	0.2%	30.0%	-6.0%	-0.5%	-13.2%	2.4%	4.2%
Cc1cc(C)c(S(=O)(=O)c2ccccc2C)c(OCCN(C)C)n1	0.9%	-2.1%	6.3%[46.1 µM]	-5.2%	.	.	-21.5%[46.1 µM]	1.0%
O=S(=O)(c1ccc(Oc2ccc(Cl)cc2)nc1)N1CCOCC1	5.0%	3.2%	?	-26.8%	.	.	-13.4%[46.1 µM]	.
Cc1cccn2c(=O)c(C(=O)NC3CCCCC3C)c(O)nc12 (stereo not given)	-26.2%	-5.7%	0.7%	13.0%	.	.	8.9%	.
Cc1ccccc1C(=O)NN1CCOCC1	22.7%	1.1%	3.5%	-0.3%	1.3%	-0.2%	9.7%	12.7%
COc1ccc(Nc2cc(C(=O)NCc3ccco3)c3ccccc3n2)c(OC)c1	-2.9%	14.7%	-23.6%	1.7%	-11.2%	-1.3%	?	-24.7%
Cc1ccc(-n2nc(CC#N)c(C#N)c2N)cc1Cl	-2.5%	10.9%	?	-24.2%	-2.4%	1.4%	16.4%	8.7%
CN(C)C(=S)NC(=O)C12CC3(C)CC(C)(CC(C)(C3)C1)C2	-17.3%	-0.6%	15.3%[46.1 µM]	-19.0%	.	.	-0.4%[46.1 µM]	-4.8%
CCC(=NCc1ccco1)c1c(O)n(C)c(=O)n(C)c1=O	-16.2%	-0.8%	.	-4.3%	.	.	.	-2.4%
Cc1ccnc(NC(=O)COc2ccc(Cl)cc2)n1	0.1%	0.3%	.	72.9%[activator]	.	.	.	-0.5%
COc1ccc(C)cc1NC(=O)C1CCCN(S(=O)(=O)c2ccc(-n3cnnn3)cc2)C1 (stereo not given)	0.2%	0.5%	.	?	.	.	-19.8%[46.1 µM]	5.0%
C[C@H](NC(=O)N1CCn2c1nc1ccccc12)C(=O)N1CCCCC1	-5.3%	-6.0%	.	11.3%	.	.	.	5.9%
CCOC(=O)C1(Cc2cccc(F)c2)CCN(Cc2cnc(C)s2)CC1	-6.8%	0.2%	20.6%	?	.	.	10.7%[46.1 µM]	-0.2%
Cc1ccc(S(=O)(=O)C(CNC(=O)C(=O)NCCc2ccccc2)c2cccs2)cc1 (stereo not given)	.	.	?	?	2.1%	17.2%	.	.
Cc1cccc(N2CCN(S(=O)(=O)c3c(C)[nH]c(C)c3C(=O)N3CCCC3)CC2C)c1 (stereo not given)	11.1%	-0.3%	.	5.0%	.	.	.	-2.2%
CCCCn1cnc2c1c(=O)n(CC(=O)c1cc(C)n(C)c1C)c(=O)n2CC(C)C	14.5%	-5.4%	-10.7%	0.0%	-1.0%	?	2.7%[46.1 µM]	-1.5%
O=C(Nc1ccc(Cl)cc1C(F)(F)F)c1ccc(Cl)cc1	13.9%	-3.5%	2.8%	0.0%	0.9%	-5.5%	10.4%	-4.5%
Cc1cc(C)nc(SCc2cc(=O)c(OC(=O)c3ccc(Br)o3)co2)n1	14.6%	-24.2%	21.8%	-0.7%	?	-14.6%	12.7%	-9.3%

Other structures follow:
SMILES	RE007 growth inh	SARS PLP yeast	LASV entry inh	StopGo reporter	Cruzain inh Det	Cruzain noTriton	MARV entry inh	NS1 inh
O=C(CN1CCCCC1)N1CCN(S(=O)(=O)c2ccccc2)C1	18.3%	3.5%	1.0%	1.3%	.	.	-12.0%[46.1 µM]	.
NC(=O)c1c(NC(=O)c2cccnc2Cl)sc2c1CCCC2	1.4%	-11.5%	-11.3%	-9.8%	-9.2%	0.4%	-8.0%	-21.6%
Cc1ccc(S(=O)(=O)N2C(=O)CCC2C(=O)Nc2ccc3c(c2)OCCO3)cc1 (stereo not given)	6.8%	-0.5%	0.1%	-6.2%	-8.2%	-1.3%	-24.5%&-24.5%	-2.2%
[O-]C(=C(C(=S)Nc1cccc2ccccc12)[n+]1ccccc1)c1ccc2c(c1)OCCO2	-20.5%	.	-26.8%[46.1 µM]	12.2%	.	.	-12.0%[46.1 µM]	.
COc1ccc(/C=C2/C(=O)NC(=O)N(C3CCCCC3)C2=O)cc1CSc1ccccn1	.	0.2%	.	.	-6.8%	?	.	1.9%
Cc1cc(C)nc(NC(=O)CCC2CCCC2)c1	?	-4.2%	7.2%	5.4%	-0.8%	-3.4%	-4.6%	0.4%
